# Assay outcomes deposited in PubChem BioAssay by several laboratories.
# LANA-H2B inh: blocks KSHV LANA binding to histone H2A/H2B. 0.6% of 320,000 active. inhibition, % (no concentration beside the values). cell-free LANA-H2A/H2B peptide, fluorescence polarization; in the data active = inhibition mostly above about 10%, no sharp cut-off; inactive = mostly below about 6.7%;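 also: stock transfer was 7.5 nL into about 10 µL; 0% = median of vehicle wells and 100% = median of positive control wells; one replicate is shown; the record names a cut of 25% in any replicate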
# ALR inh: inhibitors of human sulfhydryl oxidase ALR; purified ALR, DTT oxidation, H2O2 HRP-luminol luminescence; 3.8% of 290,000 active; inhibition, % (test concentration not listed);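 active = mean and each replicate at 75% or more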;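 also: stock transfer was 7.5 nL into about 7.5 µL; 0% = neutral wells and 100% = wells with inactivated enzyme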
# Beta2AR agonist: human beta-2 adrenergic receptor agonism by FAP. response, % (no concentration beside the values). 0.43% of 340,000 active. Am2.2-beta2AR cells, FAP receptor internalization, flow cytometry; reference of the scale not given here. P07550;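 active = response above a set limit, near 3 SD of response in nonfluorescent compounds, cut at about 42% in these data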;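 also: stock transfer was 100 nL into about 11 µL; a reference agonist was the positive control; negative values mostly stem from fluorescent compounds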
# Target sequence (P07550 whole entry, looked up): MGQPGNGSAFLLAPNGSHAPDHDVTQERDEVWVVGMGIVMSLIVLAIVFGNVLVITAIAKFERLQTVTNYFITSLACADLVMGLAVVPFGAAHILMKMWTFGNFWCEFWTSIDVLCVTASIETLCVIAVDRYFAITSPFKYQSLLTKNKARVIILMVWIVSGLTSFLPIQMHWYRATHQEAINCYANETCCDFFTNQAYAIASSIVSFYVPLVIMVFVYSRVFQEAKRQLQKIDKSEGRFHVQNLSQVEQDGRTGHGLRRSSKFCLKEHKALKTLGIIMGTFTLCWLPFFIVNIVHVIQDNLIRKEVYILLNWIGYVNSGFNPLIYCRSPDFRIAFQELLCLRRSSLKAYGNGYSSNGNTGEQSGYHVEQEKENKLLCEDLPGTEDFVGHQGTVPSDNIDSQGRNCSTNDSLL
# FGF22 binding: binders of recombinant human FGF22 by thermal shift; calls only at 9.99 µM; Q9HCT0; 1.5% of 340,000 active; SYPRO orange fluorescence; percent of sucrose octasulfate shift, DMSO zero;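 active = melting point raised past a set limit in the mean and every replicate; three in four hits are not shown here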
# Target sequence (Q9HCT0 whole entry, looked up): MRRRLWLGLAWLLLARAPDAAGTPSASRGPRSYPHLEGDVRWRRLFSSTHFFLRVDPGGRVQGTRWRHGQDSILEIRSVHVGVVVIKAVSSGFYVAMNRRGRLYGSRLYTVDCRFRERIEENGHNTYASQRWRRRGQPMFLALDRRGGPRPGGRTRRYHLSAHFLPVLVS
# HNF4A DNA FP: change in binding of human HNF4 alpha to DNA | P41235 | HNF4a-FITC DNA binding, fluorescence polarization, 1 h | activity change, % at 10 µM | 0.3% of 360,000 active | AID 1224865; in the data active = activity change above about 30%, passing the limit was not always enough;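 also: controls were the assay level and a saturating level of protein; the project sought stronger binding though the title names inhibitors; some compounds called inactive have numbers as strong as hits; positive values seem to mean higher polarization but the record does not say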
# UCH37 inh: blocks the human deubiquitinase UCH37 | Q9Y5K5 | purified proteasome/UCH37, Ub-AMC cleavage fluorescence | inhibition, % (concentration not given with the values) | 0.33% of 330,000 active;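 active = mean of two replicates above 20%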;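 also: 0% = compound-free wells with enzyme and 100% = wells lacking proteasome; stock transfer was 100 nL into about 20 µL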
# Target sequence (Q9Y5K5 whole entry, looked up): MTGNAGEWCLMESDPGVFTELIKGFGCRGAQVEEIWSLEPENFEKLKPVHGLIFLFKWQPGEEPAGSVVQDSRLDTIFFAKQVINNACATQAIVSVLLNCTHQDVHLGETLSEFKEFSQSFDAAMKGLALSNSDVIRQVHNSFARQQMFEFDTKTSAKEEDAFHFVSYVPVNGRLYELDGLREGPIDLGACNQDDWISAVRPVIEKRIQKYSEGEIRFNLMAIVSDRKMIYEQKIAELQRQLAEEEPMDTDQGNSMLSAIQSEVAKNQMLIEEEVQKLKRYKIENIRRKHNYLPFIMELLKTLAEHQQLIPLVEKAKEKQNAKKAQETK
#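 Reagent: Ub-AMC substrate; assay system: Proteasome-associated human UCH37 deubiquitinase; controls: no-proteasome and no-compound wells; read-out: % inhibition of Ub-AMC cleavage fluorescence; timing: 30 min preincubation with enzyme, 25 min cleavage at room temperature; signal: AMC fluorescence from Ub-AMC cleavage, excitation 355 nm, emission 460 nm; buffer or medium: Tris-HCl pH 7.4 plus ovalbumin, ATP-MgCl2, DTT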
# Ecoli growth: blocks Escherichia coli growth; OD600, 23 h; stronger effect = lower value; OD600 absorbance (test concentration not listed); 0.21% of 330,000 active; AID 1053175;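 active = OD600 absorbance below the run mean of sample wells minus 3.6 SD, in any replicate, cut at about 0.56 in these data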;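 also: stock transfer was 300 nL into about 60 µL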
# Starred values were filed as active, the others as inactive; i = inactive; nt = not tested or not shown.
SMILES,LANA-H2B inh,ALR inh,Beta2AR agonist,FGF22 binding,HNF4A DNA FP,UCH37 inh,Ecoli growth
COc1cc(SC)ccc1C(=O)NCCOc1c(C)cc(C)cc1C,-4.2,1.2,-7.0,i,-1.3,4.3,0.711
COc1ccccc1C(=O)N/C(=C\c1ccccc1)C(=O)NC(Cc1ccccc1)C(=O)O (stereo unspecified),-1.9,-1.4,-1.6,i,0.7,6.0,0.68
COc1ccccc1N=C(C)C1=C(O)CC(c2ccccc2)CC1=O (stereo unspecified),0.4,nt,16.7,nt,5.6,7.2,0.702
c1ccc(CSc2ncnc3ccccc23)cc1,1.2,-5.8,0.7,i,6.1,2.5,0.7
COc1cc(/C=C(\C#N)C(=O)c2c[nH]c3ccccc23)cc(OC)c1O,-13.8,99.4*,-110.7,i,83.8*,10.6,0.69
Cc1ccnc(Nc2nc(-c3ccc(O)cc3)cs2)c1,0.5,37.9,1.0,i,1.6,1.3,0.62
NCCCC[C@@H]1NC(=O)[C@H](CCC(=O)O)NC(=O)c2cc([N+](=O)[O-])cc(I)c2SC[C@@H](C(=O)NCC(N)=O)NC1=O,-0.3,nt,1.2,i,9.8,0.9,nt
O=C(Nc1ccc(Cl)cc1)Nc1cccnc1,-2.9,-4.7,1.9,i,0.8,1.1,0.598
C=CCn1c(=NC(=O)c2ccccc2[N+](=O)[O-])sc2cc(S(C)(=O)=O)ccc21,4.2,nt,5.9,i,5.1,4.9,0.694
O=C(Nc1ccc2nc3n(c(=O)c2c1)CCCCC3)C(=O)N1CCN(c2ccccc2F)CC1,3.6,nt,-13.8,i,-0.4,-1.4,0.687
O=C(Cn1nnc2ccccc21)Nc1ccc(Cl)cn1,-6.0,-20.4,-1.4,i,0.4,-1.2,0.723
CN(C)C(CNc1ncnc2ccccc12)c1c(F)cccc1Cl (stereo unspecified),5.1,1.8,7.0,i,-1.9,1.6,0.691

# Of the compounds above, two contain fluorine:
SMILES,LANA-H2B inh,ALR inh,Beta2AR agonist,FGF22 binding,HNF4A DNA FP,UCH37 inh,Ecoli growth
O=C(Nc1ccc2nc3n(c(=O)c2c1)CCCCC3)C(=O)N1CCN(c2ccccc2F)CC1,3.6,nt,-13.8,i,-0.4,-1.4,0.687
CN(C)C(CNc1ncnc2ccccc12)c1c(F)cccc1Cl (stereo unspecified),5.1,1.8,7.0,i,-1.9,1.6,0.691

# Next section:
SMILES,LANA-H2B inh,ALR inh,Beta2AR agonist,FGF22 binding,HNF4A DNA FP,UCH37 inh,Ecoli growth
CCOc1ccc(NCC(=O)Nc2ccc(Cl)cc2C)cc1,3.2,-11.3,1.6,nt,1.0,-2.1,0.715
Cc1ccccc1CSc1nc(-c2ccccc2)cc(=O)[nH]1,1.8,-0.3,5.8,i,0.6,5.4,0.738
Cc1ccc(C)c(N2CCN(C(=O)CCc3nc(-c4cccc(Br)c4)no3)CC2)c1,nt,nt,-7.9,i,-0.8,1.3,0.72
COC(=O)[C@@]12CCCCN1[C@H](c1ccc(-c3ccc(Cl)c(Cl)c3)cc1)[C@H]1C(=O)N(C)C(=O)[C@H]12,-4.4,-5.2,9.0,i,0.3,3.7,nt
CN(C)S(=O)(=O)c1ccc(C(=O)Nc2ccc3c(c2)CCC3)cc1,-9.5,-2.7,9.9,i,-1.5,2.6,0.571
CC1(c2ccccc2)NC(=O)N(CC(=O)Nc2ccccc2N2CCCCC2)C1=O (stereo unspecified),-1.4,1.2,-4.5,i,2.4,0.7,0.726
O=C(Cc1ccc(F)cc1)NC1CCS(=O)(=O)C1 (stereo unspecified),4.1,-1.3,1.6,i,-1.5,4.9,0.681
CSc1ccccc1NC(=O)CN(C)C(C)C(=O)Nc1ccc(C#N)cc1 (stereo unspecified),-4.0,-13.7,0.5,i,0.9,3.8,0.699
Cc1cc(C(=O)NC(Cc2c[nH]c3ccccc23)C(=O)O)c(C)o1 (stereo unspecified),3.1,5.5,-2.9,i,-0.2,-0.4,0.648
CN1C(N)=NC(=O)/C1=C/c1ccc(OC(F)(F)F)cc1,-0.3,-10.4,5.5,i,-0.1,4.6,0.681
CCN(C(=O)COC(=O)c1ccc(Br)o1)C1CCCCC1,-0.1,-2.2,11.3,i,-4.2,3.1,0.675
Nc1nc(N)c2[nH]cnc2n1,-2.3,-5.2,nt,nt,nt,0.9,0.704
C=CC(C)(C)c1cc2cc3ccoc3cc2oc1=O,2.0,-3.2,-2.1,i,1.5,0.9,0.645
O=C(CN1C(=O)NC2(CCCCC2)C1=O)Nc1cc(C(F)(F)F)ccc1N1CCOCC1,nt,nt,0.9,i,1.3,-0.4,0.725
CC(=O)Nc1ccc(S(=O)(=O)NCc2ccncc2)cc1,-1.0,0.8,3.3,i,-1.5,-0.7,0.624
CC(=O)C1=C(C)NC(SCC(N)=O)=C(C#N)C1c1cccs1 (stereo unspecified),1.3,-11.1,-2.7,nt,0.7,-3.8,0.722
COc1cccc(N2CC(C(=O)Nc3nnc(SCc4cccnc4)s3)CC2=O)c1 (stereo unspecified),-0.4,-44.0,-5.9,i,1.4,3.4,0.668
O=C(NCC(=O)N1CCN(c2ncc(C(F)(F)F)cc2Cl)CC1)c1ccc(Br)o1,2.8,4.3,-9.4,i,-5.0,0.7,0.681
COc1ccc(CCNc2cc(C)nc3c(-c4ccccc4)c(C)nn23)cc1OC,-2.3,1.6,-13.8,i,11.2,-42.8,0.739
CCc1nnc(NC(=O)CSc2nc(-c3ccc(F)cc3)cc(-c3ccccc3)c2C#N)s1,nt,nt,8.9,i,0.6,-10.2,0.708
O=C1[C@@H]2C(c3cccnc3)=NO[C@@H]2C(=O)N1c1ccc2ccccc2c1,0.3,-11.3,7.3,i,5.7,4.4,0.651
O=C(c1ccc2nc(Cc3cccc(Cl)c3)oc2c1)N1CCC[C@H]1CO,nt,-7.7,-0.6,i,3.8,nt,nt
O=C(CCSc1nc(-c2ccc3c(c2)OCO3)cc(C(F)(F)F)n1)NCc1ccccc1,-0.1,-3.4,4.5,nt,-0.3,-120.3,0.743
O=C(O)c1ccc(C(=O)O)c(C(=O)c2ccccc2)c1,3.7,1.7,9.4,nt,2.0,1.8,0.695
O=C1CCC(=O)N1c1ccc(NCc2ccccc2Cl)c([N+](=O)[O-])c1,-7.2,-2.6,-1.7,nt,0.1,2.8,0.705
O=c1[nH]nc(SCCS(=O)(=O)c2ccc(F)cc2)n1-c1ccc2c(c1)OCCO2,-0.8,-1.8,-4.3,i,-4.3,0.8,0.603
CCCCN(CC)CCNC(=O)C1CCCN(S(=O)(=O)c2cccc3nsnc23)C1 (stereo unspecified),-1.7,-4.2,-4.3,i,-0.2,6.3,0.655
COCC(=O)Nc1ccc(OC)c(Cl)c1,-5.9,nt,-0.9,i,-0.4,2.4,0.674
COc1cccc(C(=O)N(C)C(C)c2nc3ccccc3s2)c1 (stereo unspecified),-6.0,-7.0,1.1,i,3.6,3.2,0.705
CCC1CCCCN1CCCNC(=O)c1ccc2c(=O)n(Cc3ccc(OC)cc3)c(=O)[nH]c2c1 (stereo unspecified),-6.3,-10.9,9.4,nt,3.6,1.8,0.696
Cc1ccc(CNC(=O)C(=O)NCCC2CCCCN2S(=O)(=O)c2ccc(C)cc2)cc1 (stereo unspecified),4.8,-19.1,-9.3,nt,2.3,nt,nt
COc1ccc(/C=C2/CCOC2=O)cc1,1.9,-6.7,0.8,nt,1.3,0.3,0.702
O=C(O)C1CCCCC1C(=O)NCc1cn2ccccc2n1 (stereo unspecified),1.6,-0.1,-11.5,i,0.2,1.4,0.747
O=C(NC1CCCC1)C1CC(=O)N(c2ccc(F)c(Cl)c2)C1 (stereo unspecified),0.0,-1.1,-0.8,i,3.5,-1.3,0.682
CC1CCCCN1CC(=O)Nc1ccc(N2CCCCCC2)cc1 (stereo unspecified),-3.8,99.0*,6.4,i,2.8,1.0,0.647
CCC(=O)Nc1cc(-c2nn(C)c(=O)c3ccccc23)ccc1N1CCCCC1,-1.7,2.9,5.9,nt,3.2,-1.1,0.673
Cc1cccc(C)c1NC(=O)Nc1ccc(S(N)(=O)=O)cc1,-1.4,-5.2,-6.7,i,-0.5,4.1,0.657
Cc1onc(-c2ccccc2)c1C(=O)NCc1ccc(F)cc1,7.8,2.6,-2.7,i,-0.9,6.4,0.697
CCCNC(=O)CSc1nccn1Cc1ccco1,-6.7,-8.6,-5.1,i,11.6,0.6,0.707
CCOC(=O)C1=C(C)N(C)C(=O)NC1c1c(OC)ccc2ccccc12 (stereo unspecified),-2.5,nt,5.5,i,-1.3,6.4,0.688
Cc1ccc(C2SCCN2C(=O)c2ccc([N+](=O)[O-])cc2)cc1 (stereo unspecified),-5.3,-3.1,0.1,nt,-2.6,1.6,0.678
CCOc1ccccc1NC(=O)Cn1c(=O)n(-c2ccccc2)c(=O)c2oc3ccccc3c21,-1.1,2.2,-0.7,nt,-0.6,-6.0,0.722
C=CCN(CC=C)S(=O)(=O)c1ccc(NC(=S)NC(=O)c2ccc(-c3ccccc3)cc2)cc1,1.8,-8.0,-3.8,nt,-2.9,6.5,0.844
N#Cc1c(/N=C/c2ccc(-c3ccc(C(=O)O)c(Cl)c3)o2)sc2c1CCCC2,-6.6,98.8*,7.0,nt,4.1,nt,nt
COc1cc(NC(=O)CCc2ccccc2)c(C(=O)O)cc1OC,0.2,-6.4,4.1,nt,-4.8,1.8,0.706
Cc1ccc(-c2nn(-c3cc(Cl)ccc3[N+](=O)[O-])c(=O)c3ccccc23)cc1C,6.6,-2.3,-1.6,nt,1.1,3.2,0.754
O=C(CSc1ncnc2c1oc1ccccc12)NCc1ccc(F)cc1,0.8,-3.0,-31.6,i,0.2,5.0,0.765
COC(=O)/C=C1\SC(=NC(=O)c2ccc(OC)cc2)NC1=O,-4.6,33.3,12.0,i,-2.7,3.4,0.696
CCc1ccccc1-n1c(-c2ccncc2)n[nH]c1=S,3.2,17.1,-4.0,i,3.1,6.6,0.745
CCOc1cccc2cc(C(=O)NCc3ccc(OC)cc3)c(=N)oc12,2.2,-6.1,-3.8,i,-1.5,-4.0,0.707
CC(NC(=O)C1CCCN(S(=O)(=O)c2ccc(-n3cnnn3)cc2)C1)c1ccc(F)cc1 (stereo unspecified),-3.1,-1.7,-5.4,i,-2.1,0.5,0.683
COc1ccc2cc3c(N)nn(C(=O)C4CCC(C(C)(C)C)CC4)c3nc2c1 (stereo unspecified),0.0,nt,-15.3,i,-7.2,-1.9,0.812
CSc1ncc(CN2CCN(C3CCCCC3)C(CCO)C2)cn1 (stereo unspecified),-1.9,nt,1.9,i,0.3,-0.3,0.667
COc1ccccc1N(Cc1ccccc1)S(=O)(=O)c1cccc(C(=O)NC2CC(C)(C)NC(C)(C)C2)c1,-0.8,-7.8,21.2,i,2.9,2.7,0.694
CC(C)(C)NC(=O)c1ccc(NC(=O)CSc2ccccc2)cc1,5.2,-13.1,-1.7,i,1.4,2.1,0.657
O=C(c1cccnc1)N1CCN(C(=O)c2cccs2)CC1,-1.7,-9.5,-0.6,nt,-3.4,3.2,0.702
CCc1nnc(NC(=O)CSc2nnc(-c3ccco3)o2)s1,2.5,-8.0,-6.8,i,5.2,2.5,0.666
CCn1nnnc1SCC(=O)c1cc(OC)ccc1OC,-0.7,47.3,-6.7,nt,-3.3,8.3,0.699
O=C(Nc1cnccn1)C1c2ccccc2Oc2ccccc21,5.3,-10.7,-4.3,nt,-4.4,3.6,0.757
CCCc1ccc2oc(C(=O)N3CCC(N4CCCC(O)C4)CC3)c(C)c2c1 (stereo unspecified),-2.8,-6.5,0.0,i,7.4,0.2,0.676
Cc1ccccc1-n1c(Cn2c(=O)sc3ccccc32)nnc1SCC(N)=O,-3.2,-0.5,1.5,nt,4.1,0.4,0.78
Cc1ccc(C(=O)NCCCNC(=O)Cc2ccccc2)cn1,-9.5,nt,1.5,i,0.5,3.9,0.678
CCOc1ccc(N2CC(C(=O)Nc3ccc(S(=O)(=O)N4CCOCC4)cc3)CC2=O)cc1 (stereo unspecified),5.5,nt,12.2,nt,3.0,2.7,0.702

# Only part of the results is shown. The share of hits here may be higher or lower than overall.
